Assay outcomes from PubChem.
SARS PLpro yeast: blocks SARS-CoV papain-like protease in a yeast assay | 330,000 tested, 0.19% active | Potency, µM (series often up to 32.9 µM), for inactives: at the top dose activity, positive = growth rescue | S. cerevisiae expressing SARS-CoV PLpro, growth rescue; control for the full effect not named in the record; active means well fitted rising curve with a large enough effect; inconclusive means small, poorly fitted or top-dose-only effect; inactive means no such curve, though single readings can be large or run the other way; also: 0% is about no effect; nearly all actives have a fitted effect of over 55% in size; growth read by luminescence after 48 h
Lassa entry inh: inhibitors of Lassa virus binding or cell entry. AID 540256. 300,000 tested, 1.2% active. Potency, µM (titrated, usually from 37.9 µM), for the others: at the top dose activity change, negative = inhibition, usual class: inhibitors. Lassa virus pseudotype entry inhibition, cell reporter; control for the full effect not named in the record; active means well fitted inhibition curve with a large enough effect; inconclusive means small, poorly fitted or top-dose-only effect, or effect the other way; inactive means flat fitted curve, though single readings scatter; tested in HEK293 cells; also: % is scaled to controls: 0 for no effect and ±100 for the full control effect; nearly all actives have a fitted effect of over 50% in size; luciferase read-out
Marburg entry inh: inhibitors of Marburg virus binding or cell entry; Potency, µM (top dose mostly 37.8 µM), for inactives: top-dose activity change, negative = inhibition, actives largely listed as inhibitors; 300,000 tested, 1.8% active; Marburg virus pseudotyped entry inhibition, cell reporter; control for the full effect not named in the record; about a third of the inactives were read at about 46 µM; active = well fitted inhibition curve with a large enough effect; inconclusive = small, poorly fitted or top-dose-only effect, or effect the other way; inactive = flat fitted curve, though single readings scatter; tested in HEK293 cells; about a fifth of its hits are not listed in these tables; also: % is scaled to controls: 0 for no effect and ±100 for the full control effect; luciferase read-out
Cruzain inh Det: cruzain (T. cruzi) inhibition with detergent; P25779; purified cruzain, Z-FR-AMC fluorescence, 0.01% Triton; Potency, µM, for inactives: max response, negative = inhibition, usual class: inhibitors; 200,000 tested, 0.43% active; AID 1478;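 also: plate controls were neutral wells for no effect and buffer without enzyme for full effect; nearly all actives have a fitted effect of over 40% in size; top concentration of the series not given in the record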
Target sequence (P25779 123-467 limits assumed): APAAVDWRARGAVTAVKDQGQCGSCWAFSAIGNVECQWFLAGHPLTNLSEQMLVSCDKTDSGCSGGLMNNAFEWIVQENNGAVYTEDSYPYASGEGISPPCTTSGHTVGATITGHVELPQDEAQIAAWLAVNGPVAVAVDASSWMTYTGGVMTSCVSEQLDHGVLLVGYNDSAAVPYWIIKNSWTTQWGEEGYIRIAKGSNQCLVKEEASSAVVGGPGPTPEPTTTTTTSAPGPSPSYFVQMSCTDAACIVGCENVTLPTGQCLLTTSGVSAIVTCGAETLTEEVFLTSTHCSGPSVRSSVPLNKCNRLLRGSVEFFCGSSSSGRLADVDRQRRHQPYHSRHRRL
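Read-out: AMC fluorescence (360 nm excitation, 450 nm emission), four reads over 2 min, first-to-third difference used. Conditions: cruzain 1.5 nM, Z-FR-AMC 2 uM, pH 5.5 acetate, 5 mM DTT, 0.01% Triton X-100.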
RE007 growth inh: less growth of the S. pombe RE007 Vpr strain; S. pombe RE007 Vpr strain, BacTiter-Glo ATP luminescence, 24 h; control for the full effect not named in the record; Potency, µM (titrated, usually from 92.2 µM), for inactives: at the highest dose activity change, negative = less growth; 360,000 tested, 0.21% active; active = well fitted falling curve with a large enough effect; inconclusive = small, poorly fitted or top-dose-only effect; inactive = no such curve, though single readings can be large or run the other way;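 also: % is scaled to controls: 0 for no effect and ±100 for the full control effect; nearly all actives have a fitted effect of over 50% in size; the assay follows cell death caused by Vpr and the record does not say whether a fall means rescue or toxicity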
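Fission yeast strain RE007, carrying one chromosomally integrated HIV-1 vpr copy, was seeded at OD 0.01 in PMG+AL medium with 23 nL pinned compound. After 24 h at 30 °C and 99% humidity, viability was read by BacTiter-Glo luminescence.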
Cruzain noTriton: cruzain (T. cruzi) inhibition without detergent. P25779. purified cruzain, Z-FR-AMC fluorescence, no detergent. Potency, µM, for the others: max response, negative = inhibition, most hits filed as inhibitors. 200,000 tested, 2.3% active. AID 1476;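 also: plate controls were enzyme without inhibitor for no effect and buffer without enzyme for full effect; nearly all actives have a fitted effect of over 40% in size; top concentration of the series not given in the record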
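Detergent-free condition (0.00005% Triton X-100) in acetate buffer pH 5.5 with DTT. 1.5 nM enzyme and compound were pre-mixed 15 min, then 2 uM Z-FR-AMC substrate added; reaction progress from fluorescence change between first and third reads (60 s).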
2A StopGo: FMDV 2A StopGo reporter, luciferase signal. human cells with a luciferase reporter of 2A StopGo recoding; control for the full effect not named in the record. Potency, µM (doses to about 57.9 µM), for inactives: at the top dose signal change, negative = less light. AID 1159524. 410,000 tested, 1.2% active; active = well fitted falling curve with a large enough effect; inconclusive = small, poorly fitted or top-dose-only effect; inactive = no such curve, though single readings can be large or run the other way; tested in HEK293T cells; also: % is scaled to controls: 0 for no effect and ±100 for the full control effect; nearly all actives have a fitted effect of over 45% in size; luciferase light after 4 h
NS1 inh: blocks influenza NS1 protein function | S. cerevisiae slowed by influenza A NS1, growth recovery by OD600 | Potency, µM (highest dose often 46.1 µM), without a hit: top-dose activity, positive = more growth | 270,000 tested, 0.4% active; active means well fitted rising curve with a large enough effect; inconclusive means small, poorly fitted or top-dose-only effect; inactive means no such curve, though single readings can be large or run the other way; also: nearly all actives have a fitted effect of over 50% in size
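Read-out: OD600 growth recovery of NS1-expressing budding yeast. Cells grown overnight at 30C in -URA glucose medium, washed, resuspended and diluted 1:100 in 2% galactose assay medium, pH 6.0. Same strain lacking NS1 served as positive control.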
Numbers without * were called inactive; ? = inconclusive; nt = not tested or not shown; & = joins results of further samples; [ ] = another dose, or the depositor's remark. Unless noted, calls follow the shape of the dose curve; as a rule, active = well fitted curve in the direction sought with a large enough effect; inconclusive = small, poorly fitted or top-dose-only effect, or another doubt; inactive = no such curve, though single readings can be large; an effect the other way counts as inactive or inconclusive. Potency is read from the fitted curve at half-maximal effect.

SMILES | SARS PLpro yeast | Lassa entry inh | Marburg entry inh | Cruzain inh Det | RE007 growth inh | Cruzain noTriton | 2A StopGo | NS1 inh
Cc1c(/C(O)=C2\C(=O)C(=O)N(CCCN(C)C)C2c2ccco2)cnn1-c1ccccc1 (stereo not drawn) | nt | 3%[46.1 µM] | ? | nt | -18% | nt | -21% | nt
CCOc1ccc(Nc2oc(-c3cccc(Cl)c3)nc2C#N)cc1 | ? | 1% | -29% | -0.7% | 7% | ? | 41%[activator] | -2%
O=C(Nc1ccc(Cl)c([N+](=O)[O-])c1)c1ccc(NCCCN2CCOCC2)c([N+](=O)[O-])c1 | 4% | -2% | 6.5µM* | ? | -3% | -5% | 8% | 9%
O=C(c1cc(C(=O)NCc2ccccc2)c(=O)n(Cc2ccccc2)c1)c1cc(Cl)ccc1O | 8% | ? | ? | -4.4% | 11% | ? | -1% | 6%
Cc1cc2c(=O)n(C)c(SCC(=O)NC3CCCC3)nc2s1 | 1% | 6% | 1% | nt | -3% | nt | -24% | nt
O=C(CSc1cccc2cccnc12)N/N=C/c1cccnc1 | 3% | -4%[46.1 µM] | ? | nt | ? | nt | -29% | nt
CCC(=O)Nc1cccc(C(=O)OCc2cccc([N+](=O)[O-])c2)c1 | -3% | nt | nt | nt | 4% | nt | -17% | -37%
Cc1ccc2c(c1)N(CC(=O)NCC1CCCO1)C(=O)CO2 (stereo not drawn) | -2% | 17%[46.1 µM] | 1%[46.1 µM] | nt | 10% | nt | 9% | 7%
CN1CCN(C2Cc3cc(Cl)ccc3Sc3cc(F)ccc32)CC1 (stereo not drawn) | nt | ? | ? | nt | -9% | nt | ? | nt
Cc1cccc(Nc2ccc([N+](=O)[O-])cn2)c1 | -10% | nt | nt | nt | -20% | nt | 77%[activator] | -37%
CCN(CC)C(=O)Cn1nc(-c2ccccc2O)nc1SCC(=O)Nc1ccc(OC)cc1 | -1% | -6% | ? | -2.5% | -3% | ? | 1% | 0%
O=[N+]([O-])c1ccc(/C=N/n2cnc3ccccc32)s1 | -64% | ? | ? | -6.6% | 10µM* | 10% | -7% | -48%
NC(=O)CSc1nnc(-c2ccc(S(=O)(=O)N3CCCC3)cc2)n1CC1CCCO1 (stereo not drawn) | -3% | -6% | 8%&-1% | 4.3% | 3% | -5% | -3% | -46%
CN(C)CCCN(C(=O)c1cc2ccccc2oc1=O)c1nc2ccc(F)cc2s1 | 19% | 7% | -7% | -9.2% | 27% | 1% | 1% | 1%
COc1ccc(S(=O)(=O)NCc2ccccn2)cc1 | 1% | nt | nt | 4.2% | 0% | -6% | 27% | 9%
CC(OC(=O)c1ccccc1O)C(=O)Nc1cccc(Cl)c1 (stereo not drawn) | -1% | 0%[46.1 µM] | -4%[46.1 µM] | nt | 7% | nt | -23% | -3%
CCC(=O)Nc1ccc(-c2nc3ncccc3o2)cc1C | nt | 4%[46.1 µM] | 19%[46.1 µM] | -6.9% | nt | -3% | 47%[activator] | nt
O=C(CNC1CCCC1)Nc1ccc(N2CCCCCC2)cc1 | 1% | -23% | ? | nt | -6% | nt | -20% | nt
CCc1c(C)nc(SCC(=O)c2ccc(C)c(C)c2)[nH]c1=O | -3% | -6% | -10% | 3.5% | -13% | -7% | nt | -12%
O=C(O)CCCC(=O)Nc1cccc([N+](=O)[O-])c1 | 1% | ? | 2%[46.1 µM] | nt | 2% | nt | 10% | 8%
CC(C)CN(CC(C)C)C(=O)Cc1coc2ccc3ccccc3c12 | nt | ? | -21%[46.1 µM] | -2.7% | -7% | -7% | -17% | -77%
Cc1cc(NC(=O)CC#N)n(-c2nc3ccccc3[nH]2)n1 | 0% | nt | nt | nt | 9% | nt | -12% | 3%
CS(=O)c1nc(-c2ccc(Br)cc2)cc(-c2ccccc2)c1C#N (stereo not drawn) | -11% | ? | ? | 3.1% | -16% | ? | nt | -1%
COc1ccc(-c2nc3c(n2O)CCCC3=O)cc1OC | 2% | 11% | 8% | -5.6% | 12% | -1% | -6% | ?
CCOC(=O)c1c(C)n(C)c2ccc(OC)c(NC(=O)CCN3CCSCC3)c12 | 0% | 28% | -1%&-1%&-1% | 0.5% | 2% | -15% | 6% | 5%
COC(=O)C1C2C=CC3(CN(Cc4cccs4)C(=O)C13)O2 (stereo not drawn) | 4% | 25% | 19% | 5.8% | 8% | -3% | 20% | 7%
COc1ccc(OC)c2sc(N3CCN(C(=O)c4ccco4)CC3)nc12 | nt | -9%[46.1 µM] | nt | -0.8% | nt | -12% | -13% | nt
CN1C(=O)CSc2ccc(NC(=O)Nc3ccccn3)cc21 | 12% | ? | ? | 2.0% | -9% | -13% | 41%[activator] | -9%
Nc1cccc(P(=O)(c2ccccc2)c2ccccc2)c1 | 5% | -4% | -26%[46.1 µM] | nt | -5% | nt | 1% | 10%
Cc1nn(-c2ccccc2)c(N)c1C(O)(CC(=O)C(F)(F)F)C(F)(F)F (stereo not drawn) | -14% | 0% | 11% | -5.1% | -25% | -12% | -16% | -4%
FC(F)(F)c1ccnc(Sc2n[nH]c(C(F)(F)F)n2)c1 | -3% | 5% | -24%[46.1 µM] | nt | -2% | nt | ? | -52%
Nc1nc2nc(SCC(=O)N3CCCc4ccccc43)[nH]c2c(=O)[nH]1 | -2% | nt | -6% | 3.9% | nt | 0% | nt | 1%
Brc1ccc(Oc2ncc(CN3CCOCC3)s2)cc1 | 2% | 9% | ? | -1.8% | -1%[3.69 µM] | 6% | 1% | -22%
COC(=O)c1cc2ccccc2c(-c2c(O)ccc3ccccc23)c1O | -90% | ? | 0% | -9.7% | ? | 9% | ? | -11%
CN(CCc1ccccn1)S(=O)(=O)c1ccc(F)cc1 | 5% | -6% | -10% | 3.2% | 0% | -1% | -5% | -2%
O=C1CC(Nc2ccccc2)C(=O)N1c1ccc(N2CCOCC2)cc1 (stereo not drawn) | 1% | -1% | 14%[46.1 µM] | -3.0% | 17% | -8% | 21% | -2%
CCCCCCCOc1ccc(-c2ccc(C#N)cn2)cc1 | -2% | 4% | -1% | -12% | -17% | -1% | -11% | -1%
O=C1NN(c2ccc(F)cc2)C(=O)/C1=C/c1cccs1 | -1% | -9% | 0%[46.1 µM] | nt | 25% | nt | 4% | 2%
O=C(O)CCn1c(-c2ccccc2)cc2ccccc21 | 0% | -7% | 1%[46.1 µM] | nt | -21% | nt | -2% | -34%
COCCc1ncc(CN2CCCC(C(=O)Nc3cccc(-c4cccc(C)c4)c3)C2)cn1 (stereo not drawn) | -9% | nt | nt | nt | -1% | nt | -30% | -20%
COCCN(C(=S)Nc1cc(C)cc(C)c1)C(C)c1cccnc1 (stereo not drawn) | 22% | 1% | -14% | -3.9% | -4% | 0% | 2% | 22%
CCCCN(C(=O)NC(=O)Nc1nc2ccc(OC)cc2s1)S(C)(=O)=O | -10% | 6% | 10% | 2.1% | -11% | -2% | nt | -1%
COc1ccc(-c2nnc(-c3cccnc3)o2)cc1 | -4% | -19% | -3% | -7.8% | -25% | 9% | 26% | -63%
Cc1ccc(Nc2nc(N3CCOCC3)nc(N3CCOCC3)n2)cc1C | -27% | nt | nt | nt | 4% | nt | -29% | -8%
COc1ccc(-c2coc3c2c(C)cc2oc(=O)c(C)c(C)c23)cc1 | nt | 5%[46.1 µM] | -10%[46.1 µM] | -0.9% | nt | -11% | 4% | nt
Cc1ccc(CCNC(=O)C2CCN(S(=O)(=O)c3cccc4nsnc34)CC2)cc1 | 2% | -13% | -17% | -1.6% | -18% | ? | -20% | ?
Cc1[nH]c(=O)[nH]c(=O)c1S(=O)(=O)N1CCCC1 | 2% | 13% | -12%&-12% | 3.4% | 13% | -12% | -21% | -1%
CCOC(=O)c1c(/N=C/N(C)C)sc(C=O)c1-c1ccccc1 | -1% | 8% | -8%[46.1 µM] | nt | 19% | nt | 1% | nt
CCn1c(=O)c(CCC(=O)NCC2CCCO2)c(C)c2c(C)nn(-c3ccccc3)c21 (stereo not drawn) | -11% | nt | nt | nt | 2% | nt | ? | -17%
CC(=O)c1cccc(NC(=O)CN(C)S(=O)(=O)c2ccccc2)c1 | 0% | 13% | 13% | nt | -15% | nt | 31% | -3%
CC1CC2c3cccc(C(=O)O)c3C(=O)N2c2ccc(Cl)cc21 (stereo not drawn) | -4% | -6%[46.1 µM] | 1%[46.1 µM] | nt | 0% | nt | -2% | nt
Cc1nnc(NC(=O)CSc2nc(N)c(NC(=O)c3cccs3)c(=O)[nH]2)s1 | 0% | 1% | 11%[46.1 µM] | nt | 8% | nt | -4% | 3%
Cc1cccc(N2C(=O)C(O)=C(C(=O)c3cccs3)C2c2ccc(F)cc2)n1 (stereo not drawn) | -1% | nt | nt | nt | -7% | nt | -10% | 9%
CCc1ccc(NC(=O)N2c3ccccc3Sc3ccccc32)cc1 | nt | ? | 1%[46.1 µM] | -6.2% | nt | -7% | -14% | nt
N#Cc1c(-c2ccccc2)cc(-c2ccccc2)nc1SCC(=O)Nc1ccc(Cl)cc1 | nt | 6%[46.1 µM] | 9%[46.1 µM] | 0.8% | nt | -3% | 14% | nt
CCC(C)NC(=O)C1CC(c2ccc(OC)cc2)=NO1 (stereo not drawn) | -3% | 16% | -1% | 2.3% | 22% | 9% | 38%[activator] | -12%
Cc1ccc2sc(C)[n+](CCC(C)S(=O)(=O)[O-])c2c1 (stereo not drawn) | 9% | 19% | 1% | -1.4% | 10% | -2% | -5% | 22%
CCn1nc(C(=O)Nc2ccc(C)c(C)c2)c(Cl)c1Cl | 10% | ? | 1% | 4.4% | -10% | -2% | 30% | -6%
CCNc1ccccc1CP(=O)(c1ccccc1)c1ccccc1O (stereo not drawn) | 0% | 18%[46.1 µM] | 7%[46.1 µM] | nt | -19% | nt | 2% | 21%
CCOc1ccc(C(C)C)cc1S(=O)(=O)n1nc(C)cc1C | -8% | -17% | ? | 0.7% | 0% | ? | 6% | -63%
